# CSC inhib: cancer stem cell viability inhibitors, primary screen, luminescence; cancer stem cell-like cells viability; inhibition, % at 7.5 µM; 1.1% of 300,000 active; AID 2717, 2010;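 active = mean at 75% or more and at least half the replicates too; tested in HMLE shEcad cells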;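 also: 0% = median of negative and 100% = median of positive control wells; the first replicate is given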
# MT1-MMP act inh: blockers of MT1-MMP proenzyme processing, primary screen, HT1080 RFP-PRO-GFP cells, GFP/RFP fluorescence; 0.061% of 360,000 active; Matrix metalloproteinase-14 (Homo sapiens), P50281; GFP/RFP ratio change, % at 20 µM; GFP/RFP ratio fluorescence, overnight; percent of plate control window, DMSO zero;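 active = GFP/RFP ratio change of at least 30% with cell ATP level not reduced by more than half and red fluorescence within 50% of control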; also: strong numbers were not always called active
#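 Compound: 20 µM single dose, 1% DMSO / System: HT1080 RFP-PRO-GFP cells / Controls: DMSO and RFP-L50D-GFP cell wells / Read-out basis: GFP/RFP fluorescence ratio / Schedule: overnight compound exposure at 37 °C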
# PABP polyA inh: PABP poly(A) RNA binding inhibitors, primary screen, biochemical, fluorescence polarization, uHTS; Polyadenylate-binding protein 1 (Homo sapiens), P11940; inhibition, % at 35 µM; 1% of 290,000 active; AID 2014, 2009;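 active = 50% or more with normal probe brightness, or confirmed in later tests; about a fifth of its hits are not listed in these tables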;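 also: calls also rest on retests at 20 µM and on dose response follow-up; controls were probe without protein and protein plus probe with vehicle; some compounds called inactive have numbers as strong as hits; many hits fall short of the cut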
# HIV Env fusion: inhibitors of HIV-1 Env-driven cell-cell fusion, primary screen, HeLa-JRFL effector, CEM21 target cells, luciferase; inhibition, % at 12.3 µM; 1.1% of 360,000 active;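 active = mean replicate inhibition score of at least 50 and every replicate individually at or above 50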;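 also: 0% = plate neutral controls and 100% = maraviroc near 300 nM; one replicate is shown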
# Rce1 inh: yeast Rce1p protease inhibitors, primary screen, biochemical, fluorescence, cell-free homogeneous | calls only | yeast membranes, quenched prenylated peptide cleavage fluorescence | CAAX prenyl protease 2 (Saccharomyces cerevisiae (strain ATCC 204508 / S288c)), Q03530 | 0.27% of 290,000 active;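 active = fall in fluorescence gain of 50% or more versus controls, with final raw signal at or below 3038400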;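 also: plate controls were neutral control wells for no effect and wells lacking membranes for full effect; tested at 10 µM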
# Target sequence (Q03530 whole entry, looked up): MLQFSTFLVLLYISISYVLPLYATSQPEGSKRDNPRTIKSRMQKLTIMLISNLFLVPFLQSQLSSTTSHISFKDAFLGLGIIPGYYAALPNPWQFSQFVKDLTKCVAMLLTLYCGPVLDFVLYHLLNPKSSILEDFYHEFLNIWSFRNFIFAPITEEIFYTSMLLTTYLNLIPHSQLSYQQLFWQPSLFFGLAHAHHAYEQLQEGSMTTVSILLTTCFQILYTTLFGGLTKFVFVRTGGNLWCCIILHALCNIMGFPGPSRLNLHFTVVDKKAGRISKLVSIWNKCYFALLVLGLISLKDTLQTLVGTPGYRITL
# Yeast UUG start: modulators of yeast start codon fidelity, primary screen, whole organism, S. cerevisiae, single point, plate reader; S. cerevisiae UUG-firefly luciferase reporter, luminescence/redox ratio; activity score, % at 18.7 µM; 0.13% of 350,000 active; AID 602363, 2012;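 active = replicate mean at a twofold rise or more, about +100% in these data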;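 also: firefly luciferase made from a UUG start codon reports start codon fidelity; reporter light over untreated wells divided by growth signal over untreated wells; some hits fall short of that in this replicate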
# eIF4H inh: human eIF4H binding inhibitors, primary screen, translation initiation inhibitor project, biochemical, uHTS, fluorescence polarization; Eukaryotic translation initiation factor 4H (Homo sapiens), Q15056; eIF4H fluorescence polarization binding assay; inhibition, % at 35 µM; 0.94% of 290,000 active;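 active = 50% or more with normal probe brightness, or confirmed in later tests; about a fifth of its hits are not listed in these tables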;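 also: calls also rest on retests at 20 µM and on dose response follow-up; 0% = protein and probe with vehicle and 100% = probe without protein; strong numbers were not always called active; many hits fall short of the cut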
# eIF4H inh retest: recorded beside eIF4H inh, whose call it bears; inhibition, %; compound at 20 µM; confirmation average;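 mean of two retest wells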
# PABP polyA inh retest: recorded beside PABP polyA inh, whose call it bears; inhibition, %; compound at 20 µM; confirmation repeats;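 mean of two retest wells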
# MT1-MMP act inh RFP: second read-out of MT1-MMP act inh, no call of its own (marks repeat the call); RFP signal change, %; measured here: RFP expression control read;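 0 = vehicle wells; hits needed this value within 50% of zero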
# The depositor's hits bear a star; i = inactive; x = not tested or not shown; + = active, no number.
# Preview:
SMILES,CSC inhib,MT1-MMP act inh,MT1-MMP act inh RFP,PABP polyA inh,HIV Env fusion,Rce1 inh,Yeast UUG start,eIF4H inh,others
CC1(c2nc3ccccc3[nH]2)CCC(=O)N1C1CC1 (centres undefined),x,3.0,7.2,x,17.4,x,-0.7,x,
C=CCN(CC=C)CCOc1ccccc1[N+](=O)[O-],-15.3,0.2,1.3,-14.7,-4.8,i,x,20.0,

# All compounds of this part, previewed entries included:
SMILES,CSC inhib,MT1-MMP act inh,MT1-MMP act inh RFP,PABP polyA inh,HIV Env fusion,Rce1 inh,Yeast UUG start,eIF4H inh,others
CC1(c2nc3ccccc3[nH]2)CCC(=O)N1C1CC1 (centres undefined),x,3.0,7.2,x,17.4,x,-0.7,x,
C=CCN(CC=C)CCOc1ccccc1[N+](=O)[O-],-15.3,0.2,1.3,-14.7,-4.8,i,x,20.0,
CCc1[nH]nc(C(=O)N2CCCC(Nc3cccc(F)c3)C2)c1C (centres undefined),16.6,1.0,-3.1,7.7,-46.5,i,-26.8,6.7,
CCOC(=O)C1CCN(C(=O)/C=C/c2ccc3c(c2)OCO3)CC1,-8.6,-1.9,0.2,-3.8,-219.0,i,-1.0,-8.8,
CCN(CC)CCNC(=O)c1cn(CC)c2ccc(S(=O)(=O)N(C)C)cc2c1=O,4.5,0.0,5.5,5.7,-16.5,i,-17.3,-2.4,
CCCC(CCC)=NNC(=O)CN(Cc1ccccc1)S(=O)(=O)c1ccccc1,x,11.5,6.0,3.4,x,i,-16.1,-11.4,
O=C(Nc1c2ccccc2nc2ccccc12)C(Cl)(Cl)Cl,x,2.9,5.0,19.3,x,i,1.4,-5.0,
CC1Cc2ccccc2N1C(=O)CSc1nnnn1C (centres undefined),-8.3,16.0,-1.5,-3.2,-97.4,i,9.0,2.7,
O=S(=O)(/C=C/c1ccccc1)N1CCc2ccccc2C1,-4.9,-2.3,2.0,-2.1,2.2,i,-21.8,-2.2,
Cn1c(=O)cc(SCC(=O)NCc2cccnc2)c2ccccc21,-0.1,3.4,5.3,-1.9,-37.8,i,-15.2,1.0,
CC(C(=O)NCc1ccco1)c1ccc([N+](=O)[O-])cc1 (centres undefined),-13.8,2.8,-1.1,-0.2,1.3,i,x,-2.9,
O=S1(=O)c2ccccc2N=NN1Cc1cc(Cl)cc(Cl)c1,-6.1,x,x,8.3,x,i,x,0.8,
NC(=O)NNc1ncc(C(F)(F)F)cc1Cl,-9.0,2.3,7.2,34.2,4.9,i,x,-9.2,
O=C(CSc1nc2c(c(=O)n1-c1ccc(F)cc1)SCC2)N1CCCC1,9.1,-1.6,1.1,-2.5,x,i,-4.8,-0.1,
S=C1NC2(CCCCC2)N=C1c1ccccc1,-23.1,4.7,5.6,5.3,-11.8,i,x,4.8,
CC1CCCN(C(=O)C2CCN(C(=O)Nc3ccccc3)CC2)C1 (centres undefined),x,4.7,4.2,x,-9.4,x,-17.6,x,
CC(C)(C)OC(=O)COc1cc(O)c2c(=O)cc(-c3ccccc3)oc2c1,10.8,2.0,-1.2,2.1,13.2,i,x,-9.6,
CCOc1ccc(N(CC(=O)NCCc2ccc(F)cc2)S(=O)(=O)c2ccccc2)cc1,-11.7,-0.9,-3.0,-19.0,-1.6,i,-3.7,-3.8,
COc1ccccc1CC(=O)Nc1ccc(C(=O)N2CCCCC2)cc1,-3.2,-0.9,0.8,14.1,0.4,i,6.1,-0.1,
COc1ccc(CC(=O)NNS(=O)(=O)c2ccc([N+](=O)[O-])cc2)cc1OC,-8.1,-0.4,0.2,1.5,-13.7,i,-17.0,-10.7,
CC(=O)c1c(C)oc2ccc(N(C(C)=O)S(=O)(=O)c3ccc(F)cc3C)cc12,0.9,-2.6,-20.0,-0.1,9.3,i,-18.8,-5.2,
O=C(c1ccc2c(c1)OCO2)N1CCN(S(=O)(=O)c2ccc(Cl)cc2)CC1,12.5,0.4,0.3,1.5,8.1,i,-15.2,-9.3,
Cc1ccc2c(c1)N(CC(=O)N1CCCCC1)C(=O)CO2,4.3,-0.7,1.3,1.6,13.2,i,-18.3,-5.4,
Cc1onc(C(=O)N2CCN(c3ccccc3)CC2)c1[N+](=O)[O-],x,-2.8,2.1,-11.4,-2.5,i,-9.8,-4.0,
Cc1ccc(CC(=O)Nc2ccc(C(=O)N3CCOCC3)cc2)cc1,-6.8,2.0,3.3,-2.8,-11.1,i,-7.8,-6.4,

# Reprinted from the listing, 4 compounds:
SMILES,CSC inhib,MT1-MMP act inh,MT1-MMP act inh RFP,PABP polyA inh,HIV Env fusion,Rce1 inh,Yeast UUG start,eIF4H inh,others
CC1(c2nc3ccccc3[nH]2)CCC(=O)N1C1CC1 (centres undefined),x,3.0,7.2,x,17.4,x,-0.7,x,
C=CCN(CC=C)CCOc1ccccc1[N+](=O)[O-],-15.3,0.2,1.3,-14.7,-4.8,i,x,20.0,
CCc1[nH]nc(C(=O)N2CCCC(Nc3cccc(F)c3)C2)c1C (centres undefined),16.6,1.0,-3.1,7.7,-46.5,i,-26.8,6.7,
CCOC(=O)C1CCN(C(=O)/C=C/c2ccc3c(c2)OCO3)CC1,-8.6,-1.9,0.2,-3.8,-219.0,i,-1.0,-8.8,

# (listing goes on)
SMILES,CSC inhib,MT1-MMP act inh,MT1-MMP act inh RFP,PABP polyA inh,HIV Env fusion,Rce1 inh,Yeast UUG start,eIF4H inh,others
Cc1cc(C(=O)N2CCCC(C(=O)c3cccc(C(F)(F)F)c3)C2)n[nH]1 (centres undefined),8.3,-3.9,-3.2,6.2,2.7,i,-2.7,-5.5,
CC(Oc1ccc(NC(=O)c2ccco2)cc1)C(=O)N1c2ccccc2CC1C (centres undefined),-17.7,-2.5,-3.5,-8.0,9.3,i,x,3.0,
Cc1cccc(C)c1Nc1nc2ccccc2o1,5.7,2.4,-0.4,3.8,-34.1,i,-7.4,-4.1,
O=C(COc1ccc(S(=O)(=O)NCCc2ccccc2)cc1)N1CCCC1,-10.1,-1.4,1.9,-0.5,x,i,-2.7,-3.8,
CC(=O)Nc1ccc(S(=O)(=O)N2CCN(S(=O)(=O)c3ccccc3)CC2)cc1,-5.7,4.8,1.2,5.0,-13.3,i,-3.9,1.6,
O=C(c1nsc(Cl)c1Cl)N1CCCCC1,-11.8,0.5,-2.1,5.3,-1.6,i,0.1,-1.5,
C/C(=N\NC(=S)NCCc1ccccc1)c1ccc(C#N)cc1,4.6,7.0,4.4,-11.1,-34.7,i,-18.4,5.7,
COc1ccc(-c2ccc(OC)cc2)cc1,-12.8,3.0,2.3,0.1,-125.9,i,-5.1,-7.3,
CN(CCOc1ccccc1)C(=O)c1ccc(N2CCCC2)c([N+](=O)[O-])c1,-13.2,-1.5,-6.5,-3.3,3.4,i,x,-18.2,
COc1ccccc1NS(=O)(=O)c1ccc(/C=C/C(=O)O)cc1,-5.9,1.0,7.3,-16.3,-3.2,i,-5.9,-8.1,
CCCCCCC1CC(=O)NC(=O)N1 (centres undefined),-7.1,-2.5,2.6,-15.4,14.1,i,x,-0.9,
O=C(c1n[nH]c2ccccc12)N1CCN(c2ccc(F)cc2)CC1,-2.3,5.8,3.1,3.3,-3.2,i,1.8,-2.0,
C[C@H](NC(=O)c1cc2cc(Cl)ccc2n1C)C(=O)N[C@@H](Cc1ccccc1)C(=O)O,0.9,-0.8,4.4,11.4,-66.2,i,2.9,5.2,
CC(C)Oc1ccc(C(=O)Nc2ccc(N3CCCC3)cc2)cc1,34.4,3.0,-2.3,-6.3,x,i,-11.8,-12.3,
C=C1CCN([C@@H](Cc2ccccc2)C(=O)NCc2ccc(Cl)cc2)S(=O)(=O)c2ccccc21,-4.2,-15.8,-18.1,x,42.0,i,-23.3,x,
Cc1nc(Sc2ccccc2)c(C#N)cc1-c1ccccc1,3.4,-3.8,1.3,-1.8,x,i,-6.0,3.5,
O=C1NC(=O)/C(=C\c2cn(Cc3ccccc3F)c3ccccc23)N1,-0.8,2.5,1.3,-6.0,44.9,i,-11.4,-3.0,
COc1cccc(-c2nnc(-c3ccc(C(F)(F)F)cc3)o2)c1,1.6,3.7,4.4,-5.4,-80.3,i,-19.3,-3.1,
CCOC(=O)c1ccc(Nc2ccc(-c3ccc(OC)c(OC)c3)nn2)cc1,5.8,5.6,-3.5,18.8,-16.2,x,-15.9,6.1,
O=C(OCc1ccccc1)N1CCC2CC1c1cc(N3CCN(S(=O)(=O)c4cccc(C(F)(F)F)c4)CC3)ccc12 (centres undefined),x,1.1,-8.0,x,-1.1,x,-9.5,x,
Cc1ccc(C)c(N=C2CCCN2Cc2ccccc2)c1C#N,-0.2,1.0,-4.3,5.4,24.9,i,-4.6,-3.2,
COc1ccccc1CCNC(=O)c1cc(C2CC2)nc2c1cnn2C(C)C,x,0.9,-4.7,x,6.4,x,12.5,x,
CCCC1NC(=O)c2cccnc2-n2c1nc1ccc(OC)cc1c2=O (centres undefined),x,1.1,0.5,x,11.3,x,-5.5,x,
Cc1ccc(CN2CCN(Cc3ccccc3-c3ccco3)CC2CCO)o1 (centres undefined),-5.2,-1.1,5.4,-2.1,-13.9,i,-12.1,-2.8,
Cc1ccc(-c2nnn(CC(=O)N(c3ccccc3)C(C(=O)NC(C)(C)C)c3cccs3)n2)o1 (centres undefined),-3.2,5.8,7.7,2.1,x,i,-13.1,-3.3,
# New compounds follow
SMILES,CSC inhib,MT1-MMP act inh,MT1-MMP act inh RFP,PABP polyA inh,HIV Env fusion,Rce1 inh,Yeast UUG start,eIF4H inh,others
CCOC(=O)C1=C(c2cccc(F)c2)NC(=S)NC1C (centres undefined),1.2,1.1,-2.9,-5.4,-24.7,i,-25.5,4.7,
CN1C(=O)/C(=C\c2ccccc2F)Sc2ccc(C(=O)NC3CCN(Cc4ccccc4)CC3)cc21,-7.5,1.4,-22.9,-9.5,7.3,i,6.9,-10.9,
CC(CCO)Nc1nc2c(c(=O)n(C)c(=O)n2C)n1Cc1cccc(Br)c1 (centres undefined),3.7,-7.0,2.8,31.6,2.3,i,-14.7,33.3,
Cc1ccc(/C=N/NC(=O)c2nnn(-c3nonc3N)c2C(C)C)o1,-26.6,-4.9,-6.8,9.0,-16.5,+,-27.3,-2.9,
CCCC(=O)Nc1ccccc1NC(=O)c1ccc2c(c1)OCO2,-5.6,-4.3,0.3,8.3,-6.4,i,-0.4,5.5,
CCCOc1ccccc1N1C(=O)CC(N2CCOCC2)C1=O (centres undefined),0.8,2.5,5.8,-1.6,-36.4,x,-19.0,-7.9,
COc1ccc(CCNC(=O)COC(=O)Cc2ccccc2F)cc1,-15.7,x,x,x,-5.6,x,10.8,x,
CCOc1ccc(CCNC(=O)CCS(=O)(=O)c2ccc(Cl)cc2)cc1OCC,-12.9,1.6,3.6,-1.7,-5.6,i,-4.0,-11.0,
Cc1ccc(C(C(=O)NCCc2ccccc2)N(C(=O)c2csnn2)C2CC2)cc1 (centres undefined),7.4,-3.0,2.2,8.7,6.2,i,-7.2,74.5,eIF4H inh retest=4.2;PABP polyA inh retest=-2.0
Cc1c(Cl)c(C(=O)NC2C3CC4CC(C3)CC2C4)nn1C (centres undefined),-10.2,1.6,0.8,-3.4,-10.5,i,-4.8,-6.8,
COc1cc2c(cc1NC(=O)C(C)N1CCN(S(=O)(=O)c3ccccc3[N+](=O)[O-])CC1)oc1ccccc12 (centres undefined),5.1,8.4,0.8,-5.0,-71.8,i,-2.5,-6.1,
Cc1cc(Cl)ccc1OCCCC(=O)Nc1cccnc1,-5.9,-1.8,-11.5,14.7,x,i,-15.3,-0.1,

# Screening results as filed in PubChem BioAssay.

# This is a subset; rates above refer to the full screens.
